# RE007 growth inh – qHTS Assay for Inhibitors of the HIV-1 protein Vpr. S. pombe RE007 Vpr strain, BacTiter-Glo ATP luminescence, 24 h; control for the full effect not named in the record. 360,000 compounds, 0.21% hits. AID 651644, 2012. Potency, µM (titrated, usually from 92.2 µM), inactives show at the top dose activity change, negative = less growth; active = well fitted falling curve with a large enough effect; inconclusive = small, poorly fitted or top-dose-only effect; inactive = no such curve, though single readings can be large or run the other way;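 further: on the % scale 0 is the no-effect control and ±100 the full control effect; nearly all actives have a fitted effect of over 50% in size; the assay follows cell death caused by Vpr and the record does not say whether a fall means rescue or toxicity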
#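 Fission yeast strain RE007, carrying one chromosomally integrated HIV-1 vpr copy, was seeded at OD 0.01 in PMG+AL medium with 23 nL pinned compound. After 24 h at 30 °C and 99% humidity, viability was read by BacTiter-Glo luminescence.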
# MARV entry inh – qHTS for inhibitors of binding or entry into cells for Marburg Virus | Marburg virus pseudotyped entry inhibition, cell reporter; control for the full effect not named in the record; about a third of the inactives were read at about 46 µM | Potency, µM (doses to about 37.8 µM), for inactives: at the top dose activity change, negative = inhibition, most hits filed as inhibitors | 300,000 compounds, 1.8% hits; active = well fitted inhibition curve with a large enough effect; inconclusive = small, poorly fitted or top-dose-only effect, or effect the other way; inactive = flat fitted curve, though single readings scatter; tested in HEK293 cells; about a fifth of its hits are not listed in these tables; further: on the % scale 0 is the no-effect control and ±100 the full control effect; luciferase read-out
# Lassa entry inh – qHTS for Inhibitors of binding or entry into cells for Lassa Virus. AID 540256, 2011. Lassa virus pseudotype entry inhibition, cell reporter; control for the full effect not named in the record. Potency, µM (highest dose often 37.9 µM), for the others: top-dose activity change, negative = inhibition, actives largely listed as inhibitors. 300,000 compounds, 1.2% hits; active means well fitted inhibition curve with a large enough effect; inconclusive means small, poorly fitted or top-dose-only effect, or effect the other way; inactive means flat fitted curve, though single readings scatter; tested in HEK293 cells; further: on the % scale 0 is the no-effect control and ±100 the full control effect; nearly all actives have a fitted effect of over 50% in size; luciferase read-out
# SARS PLP yeast – qHTS of Yeast-based Assay for SARS-CoV PLP | S. cerevisiae expressing SARS-CoV PLpro, growth rescue; control for the full effect not named in the record | Potency, µM (series often up to 32.9 µM), inactives show at the highest dose activity, positive = growth rescue | 330,000 compounds, 0.19% hits; further: 0% is about no effect; nearly all actives have a fitted effect of over 55% in size; growth read by luminescence after 48 h
# NS1 inh – qHTS Assay for Inhibitors of Influenza NS1 Protein Function | Potency, µM (titrated, usually from 46.1 µM), for inactives: at the top dose activity, positive = more growth | AID 2326, 2010 | S. cerevisiae slowed by influenza A NS1, growth recovery by OD600 | 270,000 compounds, 0.4% hits; further: actives are rising curves; nearly all actives have a fitted effect of over 50% in size
#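 S. cerevisiae expressing influenza A NS1, grown in glucose, washed, then diluted 1:100 into pH 6.0 -URA galactose medium with 23 nl compound. Growth recovery read as OD600; NS1-free strain serves as control.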
# Cruzain noTriton – qHTS Assay for Promiscuous and Specific Inhibitors of Cruzain (without detergent); purified cruzain, Z-FR-AMC fluorescence, no detergent; Cruzipain (Trypanosoma cruzi), P25779; 200,000 compounds, 2.3% hits; Potency, µM, for the others: max response, negative = inhibition, hits mostly inhibitors; active means well fitted curve in the direction sought with a large enough effect; inconclusive means small, poorly fitted or top-dose-only effect, or another doubt; inactive means no such curve, though single readings can be large; an effect the other way counts as inactive or inconclusive;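 further: plate controls were enzyme without inhibitor for no effect and buffer without enzyme for full effect; nearly all actives have a fitted effect of over 40% in size; top concentration of the series not given in the record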
# Target sequence (P25779 123-467 limits assumed): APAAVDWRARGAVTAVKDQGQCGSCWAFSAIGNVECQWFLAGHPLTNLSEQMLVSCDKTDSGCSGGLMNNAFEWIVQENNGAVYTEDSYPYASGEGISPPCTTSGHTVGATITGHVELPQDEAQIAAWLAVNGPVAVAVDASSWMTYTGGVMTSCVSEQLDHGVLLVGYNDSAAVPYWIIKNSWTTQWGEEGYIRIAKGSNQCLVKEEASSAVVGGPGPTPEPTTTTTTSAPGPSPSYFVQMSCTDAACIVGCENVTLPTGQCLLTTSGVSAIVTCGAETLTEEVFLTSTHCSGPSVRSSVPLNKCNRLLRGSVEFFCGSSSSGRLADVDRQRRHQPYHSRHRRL
#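 Detergent-free condition (0.00005% Triton X-100) in acetate buffer pH 5.5 with DTT. 1.5 nM enzyme and compound were pre-mixed 15 min, then 2 uM Z-FR-AMC substrate added; reaction progress from fluorescence change between first and third reads (60 s).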
# StopGo reporter – High Throughput Screening for Foot and Mouth Disease Virus Antivirals; human cells with a luciferase reporter of 2A StopGo recoding; control for the full effect not named in the record; Potency, µM (highest dose often 57.9 µM), without a hit: at the highest dose signal change, negative = less light; 410,000 compounds, 1.2% hits; AID 1159524, 2015; active = well fitted falling curve with a large enough effect; inconclusive = small, poorly fitted or top-dose-only effect; inactive = no such curve, though single readings can be large or run the other way; tested in HEK293T cells; further: on the % scale 0 is the no-effect control and ±100 the full control effect; nearly all actives have a fitted effect of over 45% in size; luciferase light after 4 h
# Cruzain inh Det – qHTS Assay for Promiscuous and Specific Inhibitors of Cruzain (with detergent). Cruzipain (Trypanosoma cruzi), P25779. purified cruzain, Z-FR-AMC fluorescence, 0.01% Triton. Potency, µM, for the others: max response, negative = inhibition, hits mostly inhibitors. 200,000 compounds, 0.43% hits. AID 1478, 2009; active means well fitted curve in the direction sought with a large enough effect; inconclusive means small, poorly fitted or top-dose-only effect, or another doubt; inactive means no such curve, though single readings can be large; an effect the other way counts as inactive or inconclusive;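 further: plate controls were neutral wells for no effect and buffer without enzyme for full effect; nearly all actives have a fitted effect of over 40% in size; top concentration of the series not given in the record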
#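 Compounds were screened in titration against cruzain (1.5 nM) with 0.01% Triton X-100 to counter colloidal aggregation. Activity was the AMC fluorescence increase over 60 s after adding 2 uM Z-FR-AMC at pH 5.5.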
# Numbers without * were called inactive; ? = inconclusive; . = no result given; & = joins results of further samples; [ ] = another dose, or the depositor's remark. Unless noted, the call rests on the fitted dose curve; in most records, active means well fitted rising curve with a large enough effect; inconclusive means small, poorly fitted or top-dose-only effect; inactive means no such curve, though single readings can be large or run the other way. Potency means the concentration at half of the fitted maximal effect.
SMILES,RE007 growth inh,MARV entry inh,Lassa entry inh,SARS PLP yeast,NS1 inh,Cruzain noTriton,StopGo reporter,Cruzain inh Det
O=C(O)C1CCCN(S(=O)(=O)c2ccc3c(c2)OCCO3)C1 (stereo not given),-12%,?,-1%,0%,3%,.,7%,.
COc1cc(/C=C(\NC(=O)c2ccccc2)C(=O)NCCO)c([N+](=O)[O-])cc1OC,14%,0%,-1%,12%,4%,-14%,?,-5.1%
Cc1ccc(-n2nc3c(N4CCC(C(=O)N5CCCCCC5)CC4)nnc(C)c3c2C)cc1,-10%,.,.,-2%,5%,.,-26%,.
COc1cccc(CN2CCNC(=O)C2CC(=O)NCCOc2cccnc2)c1 (stereo not given),-8%,18%[46.1 µM],-6%,0%,-4%,.,13%,.
CCCCNC(=O)Cn1c(=O)cc(C)c2c(C)nn(-c3ccc(CC)cc3)c21,.,.,15%[46.1 µM],.,.,4%,-15%,1.1%
COc1ccc(NCc2cc3cc4c(cc3n(CC(=O)Nc3ccc(C)cc3)c2=O)OCO4)cc1,.,.,-26%[46.1 µM],.,.,20µM*,0%,-5.5%
CCOC(=O)CSc1ccc2nnc(-c3ccccc3)n2n1,-1%,.,.,-1%,-50%,-2%,-7%,1.6%
N#C/C(=C\c1cccc(NC(=O)c2ccccc2Cl)c1)C(=O)NCCc1ccccc1,-25%,11µM*,?,-32%,18%,?,28µM*,-4.3%
CCN(CC)S(=O)(=O)c1ccc(OCC(=O)NC(=O)c2ccccc2OC)c([N+](=O)[O-])c1,-9%,-4%,-18%,2%,0%,.,-25%,.
O=C(CSc1ncccn1)NC1CCS(=O)(=O)C1 (stereo not given),-12%,.,.,-6%,7%,.,-11%,.
CC1CCN(Cc2c(O)ccc3c(=O)c(Oc4ccccc4Cl)c(C(F)(F)F)oc23)CC1,.,1%[46.1 µM],19%[46.1 µM],.,.,-1%,-15%,-3.3%
COc1cc(CN(C(=O)c2ccc(Cl)cc2)C2CCS(=O)(=O)C2)cc(OC)c1OC (stereo not given),.,0%[46.1 µM],0%[46.1 µM],.,.,3%,-2%,0.4%
COC(C(=O)Nc1ccc(F)cc1)c1ccccc1 (stereo not given),-4%,-20%,0%,16µM*,5%,-2%,19%,0.2%
COc1cc(C(=O)NC2CCCc3ccccc32)ccc1OCC(=O)Nc1ccc(F)cc1 (stereo not given),5%,?,?,-12%,-4%,15%,-11%,-4.8%
Cc1cccc(C(=O)Nc2cc3c(cc2N2CCCCC2)n(C)c(=O)n3C)c1,.,6%[46.1 µM],13%[46.1 µM],.,.,5%,0%,-1.9%
CC(=O)Nc1ccccc1C(=O)C(=O)Nc1cccc(Br)c1,-5%,7%[46.1 µM],1%,-5%,3%,.,22%,.
CC(/C=C/c1ccc(N(C)C)cc1)=N/N=C1/NC(=O)CC(C(=O)Nc2ccc(Cl)cc2)S1 (stereo not given),-9%,?,1%,-33%,10µM*,?,-1%,-16%
COc1cc2c(cc1OC)CN(C1CCC(C)CC1)CC2 (stereo not given),-15%,.,.,5%,-3%,.,-9%,.
COc1cccc(C(=O)Nc2cccc(C(=O)NCC(C)C)c2)c1,-30%,10%,6%,12%,-6%,-7%,-1%,-2.6%
CC(C)CC(=O)Nc1ccc2c3c(cccc13)CC2,-7%,-11%,-1%,14%,11%,-4%,-2%,-1.4%
COc1ccccc1N1CCN(C(=O)c2cn(C)c3ccc(S(=O)(=O)N4CCOCC4)cc3c2=O)CC1,8%,?,0%&-1%[46.1 µM],1%,-10%,0%,6%&3%,0.2%
CCOC(=O)C(NC(=O)c1ccc(F)cc1)(Nc1nnc(C)s1)C(F)(F)F (stereo not given),3%,4%,-3%,-2%,8%,5%,6%,-2.1%
Cc1ccc(C(C)C)c(OCC(=O)Nc2ccc(N3CCN(S(C)(=O)=O)CC3)cc2)c1,10%,-17%,14%,3%,26%,10%,-10%,2.7%
Cc1ccccc1OCCNC(=O)c1ccccc1Sc1ccccc1C#N,2%,-20%,-26%,-2%,-2%,9%,?,-8.1%
COc1ccc(NC(=O)c2c(C)oc3ccc(O)c(CN4CCC(C)CC4)c23)cc1,.,11µM*,?,.,.,-8%,-12%,-6.1%
CC(C)c1nc2sc(C(=O)O)c(N)c2c2c1CCCC2,21%,-13%[46.1 µM],14%,-1%,0%,.,-7%,.
COc1cccc(NC(=O)N2CCCC(C(=O)Nc3ccccc3OC)C2)c1 (stereo not given),12%,-1%,-5%,1%,-8%,5%,14%,-1.7%
O=C(OCC1COc2ccccc2O1)c1ccccc1F (stereo not given),-6%,-4%,1%,-5%,-12%,-6%,83%[activator],-4.0%
CCc1cc2c3c(c1)C1(C(=O)N3C(C)(C)CC2C)C(C#N)=C(N)N2C(=C1C#N)Nc1ccccc12 (stereo not given),-11%,?,13µM*,-13%,23%,9%,?,-9.7%
Cc1ccccc1S(=O)(=O)NC1OC(=O)C(Oc2ccccc2)=C1Br (stereo not given),-23%,22%[46.1 µM],-14%,-1%,1%,.,3%,.
Cc1c(Cl)cccc1N1CC(c2nc3ccccc3n2Cc2ccccc2F)CC1=O (stereo not given),.,?,?,.,.,25%,-23%,-7.8%
O=C(NC1CCCCC1)C(c1ccccc1)N(Cc1ccco1)C(=O)c1csnn1 (stereo not given),4%,?,-5%,2%,10%,.,-2%,.
COC(=O)c1ccc(NC(=O)CCn2c(=O)oc3ccccc32)cc1,32%,25%,18%,-2%,-8%,-7%,13%,1.9%
CCN(C(=O)COC(=O)c1[nH]c(C)c(C(C)=O)c1C)C1CCS(=O)(=O)C1 (stereo not given),12%,20%,2%,-2%,3%,0%,8%,4.6%
O=C(c1ccoc1)N1CCCC(N2CCN(c3cccc(Cl)c3)CC2)C1 (stereo not given),-10%,7%,2%,-4%,-5%,.,-5%,.
CCn1c(SCC(=O)Nc2ccc(C)cc2)nnc1-c1ccc(O)cc1,6%,9%,-15%,2%,5%,-3%,-56%,-4.1%
Cc1cccc(C)c1NC(=O)c1cc(S(=O)(=O)N2CCOCC2)ccc1F,0%,13%,23%[14.3 µM],8%,4%,9%,11%,1.5%
CN(C)/C=C/C(=O)c1ccc(Br)s1,-11%,15%[46.1 µM],-1%[46.1 µM],-5%,-44%,.,-8%,.
O=C1NC(=Nc2ccccc2Cl)S/C1=C\c1ccc(C(=O)O)cc1,3%,.,.,1%,10%,.,7%,.
Cc1c(C#N)c2ncnc(-c3ccccc3)c2n1-c1ccccc1,-17%,-9%,1%,3%,26%,-8%,-26%,1.4%
Cc1ccc(C)c(CN2C(=O)c3ccccc3S(=O)(=O)c3ccc(C(=O)N4CCN(c5ccccc5F)CC4)cc32)c1,.,?,-19%[46.1 µM],.,.,-24%,4%,0.9%
COc1cc(NC(=O)CNS(=O)(=O)c2cccs2)cc(OC)c1OC,.,.,16%[46.1 µM],.,.,6%,-18%,0.9%
COc1ccc(CN(CC(=O)NCC2CCCO2)C(=O)CCC(=O)Nc2nccs2)cc1 (stereo not given),-3%,18%,-17%,-1%,4%,.,1%,.
COc1ccc(OCCN2CCN(C3CC(=O)N(CCC(C)C)C3=O)CC2)cc1 (stereo not given),-21%,-21%&-21%,-2%,-5%,-4%,2%,?,-0.2%
CCCCNc1nc2sc3c(c2c(=O)n1-c1cccc(Cl)c1)CCN(C)C3,-11%,?,-13%,-1%,0%,.,1%,.
Cc1ccc(S(=O)(=O)N/N=C/c2ccc(OS(=O)(=O)c3ccc(C)c([N+](=O)[O-])c3)cc2)cc1,29%,?,3%,2%,7%,?,27%,-1.5%
Cc1ccc(N(CC(=O)NC2CCCCC2)C(=O)CCC(=O)Nc2nccs2)cc1,1%,-1%[46.1 µM],11%,0%,29%,.,8%,.
CCOc1ccc(C(=O)COC(=O)C2COc3ccccc3O2)cc1 (stereo not given),-1%,10%,?,0%,.,.,-27%,.
CN(C)CCN(C(=O)c1ccc(S(=O)(=O)N2CCc3ccccc32)cc1)c1nc2ccc(F)cc2s1,5%,?,26%[46.1 µM],-3%,13%,.,0%,.
COc1ccc(CCn2c(SCCN3CCCCC3)nc3ccccc3c2=O)cc1OC,9%,.,.,0%,2%,.,-20%,.
Cc1ccc(N2CCN(S(=O)(=O)c3ccc(Cl)s3)CC2C)cc1 (stereo not given),4%,-12%,-19%,-7%,-23%,.,?,.
CC1(C)CC2CC(C)(CN2Cc2cccc([N+](=O)[O-])c2)C1 (stereo not given),-1%,.,.,2%,0%,.,-12%,.
COc1ccc(CNC(=O)C23CN(Cc4ccccc4)CC2C(c2ccc([N+](=O)[O-])cc2)=NO3)cc1 (stereo not given),-2%,5%,.,-4%,5%,?,9%,-2.8%
Cc1cccc(-c2nnc(SCC#N)n2-c2cccc(Cl)c2)c1,2%,?,-9%,-6%,0%,-3%,-20%,-4.1%
CCCCc1cc(=O)oc2cc(C)c3c(C)coc3c12,.,?,-2%[46.1 µM],.,.,-4%,-17%,-6.8%
COC(=O)c1[nH]c2cccc(OC)c2c1NC(=O)CCN1CCN(c2cccc(Cl)c2)CC1,.,0%,.,0%,-2%,8%,.,-2.3%
COCC(=O)N(CCN(C)C)Cc1cc2cc3c(cc2nc1Cl)OCO3,10%,.,.,0%,-2%,.,2%,.
CCCN(C(=O)Cc1nc(N)n[nH]1)C1(C(=O)Nc2ccccc2C)CCCCC1,5%,-2%,3%,1%,5%,4%,8%,4.3%

# Bioassay records deposited in PubChem BioAssay by National Center for Advancing Translational Sciences (NCATS).
